CtBP-E1A blk: blocks the CtBP interaction with E1A; AlphaScreen GST-E1A/His-CtBP binding, 1536-well; active compounds read low; control for the full effect not named in the record; hit rate 0.49% among 340,000; activity change, % (no concentration beside the values); in the data active means activity change below about -65%; inconclusive means about -30% to -65%; inactive means above about -30%; note: % is set by controls: 0 for no effect and ±100 for the full control effect
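In 5 uL wells, 23 nL compound meets equimolar GST-E1A and His-CtBP (5X stock 125 nM each) for 2 h, 37 °C. Beads (5X, 50 ug/mL) then 1 h, 37 °C, dark.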
ClpP mod: qHTS Assay for Activators of ClpP. hit rate 1.9% among 340,000. AID 651965, 2013. Potency, µM (series often up to 57.5 µM), inactives show top-dose activity change, negative = active. purified B. subtilis ClpP, FRET peptide cleavage, 20 min; active = well fitted falling curve with a large enough effect; inconclusive = small, poorly fitted or top-dose-only effect; inactive = no such curve, though single readings can be large or run the other way; note: potency is the fitted concentration of half-maximal effect; the source files actives as falling curves though it sought activators and does not explain the sign; nearly all actives have a fitted effect of over 65% in size; many hits overshoot -100%
Target sequence (P80244 whole entry, looked up): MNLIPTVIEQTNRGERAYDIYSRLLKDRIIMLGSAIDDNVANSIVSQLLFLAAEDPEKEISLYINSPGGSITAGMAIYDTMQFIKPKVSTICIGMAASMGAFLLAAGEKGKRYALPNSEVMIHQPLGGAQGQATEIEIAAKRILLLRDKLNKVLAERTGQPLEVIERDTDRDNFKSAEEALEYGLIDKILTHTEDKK
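ClpP 10 microg/mL final, pH 8 Tris/KCl buffer with BSA, glycerol, Tween-20; compound pinned in; FRET-FV substrate; RT 20 min; Ex320/Em430; ΔFRET vs ADEP 5.8 microM, DMSO, no enzyme.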
gsp agonist: agonists of gsp mutant (McCune-Albright syndrome) | gsp mutant cells, cAMP HTRF, 30 min; control for the full effect not named in the record | Potency, µM (titrated, usually from 76.9 µM), inactives show at the top dose activation (cAMP increase), actives largely listed as activators | hit rate 0.13% among 340,000; active = well fitted activation curve with a large enough effect; inconclusive = small, poorly fitted or top-dose-only effect, or another doubt; inactive = no such curve, though single readings can be large or run the other way; cell line not stated here;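 note: phosphodiesterase inhibitor Ro 20-1724 added with compounds to block cAMP breakdown; potency is the fitted concentration of half-maximal effect; nearly all actives have a fitted effect of over 60% in size; about a fifth of the inactives were tested at one dose only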
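Cells stably selected in G418 were plated at 2000/well, grown 16-24 hr, then given compounds in DMSO with the PDE inhibitor […] (300 uM solution added) for 30 min at 37C; cAMP was read by HTRF.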
Sfp PPTase inh: blocks B. subtilis Sfp PPTase activity. Q9F4F7. Biochemical Sfp PPTase activity, qHTS. Potency, µM, inactives show max response, negative = inhibition, most hits filed as inhibitors. hit rate 3.5% among 310,000. AID 1490; active = well fitted inhibition curve with a large enough effect; inconclusive = small, poorly fitted or top-dose-only effect, or another doubt; inactive = no such curve, though single readings can be large or run the other way;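 note: the enzyme is Sfp with the accession as filed and its product quenches rhodamine fluorescence; potency is the fitted concentration of half-maximal effect; 0% = enzyme reaction without inhibitor and -100% = no enzyme wells; top concentration of the series not given in the record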
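Reaction rates are the 30-min fluorescence difference (ex 525, em 598 nm) in wells containing 15 nM Sfp, 5 uM rhodamine-CoA and 12.5 uM BHQ-2-YbbR at pH 7.6 with 10 mM MgCl2.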
Menin-MLL FL inh: displaces fluorescein MLL peptide from human menin; 290,000 tested, under 10 active; AID 1766; FP activity change, % at 61.4 µM; Fluorescence polarization, fluorescein-MLL peptide displacement from menin; inconclusive = falling polarisation curve, or a change in total fluorescence; inactive = total fluorescence flat and polarisation flat or rising; no compound was filed as active; the % refers to the polarisation; negative = inhibition;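 note: % of control where 0% means no effect; inhibitors lower the polarisation; unlabelled MLL peptide was the positive control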
TRPV1 potentiator: potentiators of human vanilloid receptor 1 (TRPV1); AID 540277; TRPV1-expressing cells, Fluo-8 calcium influx, capsaicin EC20 potentiation; host cell line not named in the record; control for the full effect not named in the record; Q8NER1; hit rate 0.02% among 320,000; potentiation, % at 8.33 µM; active means potentiation above 80%; inconclusive means 30% to 80%; inactive means below 30%; note: 0% is about no effect
Target sequence (Q8NER1 whole entry, looked up): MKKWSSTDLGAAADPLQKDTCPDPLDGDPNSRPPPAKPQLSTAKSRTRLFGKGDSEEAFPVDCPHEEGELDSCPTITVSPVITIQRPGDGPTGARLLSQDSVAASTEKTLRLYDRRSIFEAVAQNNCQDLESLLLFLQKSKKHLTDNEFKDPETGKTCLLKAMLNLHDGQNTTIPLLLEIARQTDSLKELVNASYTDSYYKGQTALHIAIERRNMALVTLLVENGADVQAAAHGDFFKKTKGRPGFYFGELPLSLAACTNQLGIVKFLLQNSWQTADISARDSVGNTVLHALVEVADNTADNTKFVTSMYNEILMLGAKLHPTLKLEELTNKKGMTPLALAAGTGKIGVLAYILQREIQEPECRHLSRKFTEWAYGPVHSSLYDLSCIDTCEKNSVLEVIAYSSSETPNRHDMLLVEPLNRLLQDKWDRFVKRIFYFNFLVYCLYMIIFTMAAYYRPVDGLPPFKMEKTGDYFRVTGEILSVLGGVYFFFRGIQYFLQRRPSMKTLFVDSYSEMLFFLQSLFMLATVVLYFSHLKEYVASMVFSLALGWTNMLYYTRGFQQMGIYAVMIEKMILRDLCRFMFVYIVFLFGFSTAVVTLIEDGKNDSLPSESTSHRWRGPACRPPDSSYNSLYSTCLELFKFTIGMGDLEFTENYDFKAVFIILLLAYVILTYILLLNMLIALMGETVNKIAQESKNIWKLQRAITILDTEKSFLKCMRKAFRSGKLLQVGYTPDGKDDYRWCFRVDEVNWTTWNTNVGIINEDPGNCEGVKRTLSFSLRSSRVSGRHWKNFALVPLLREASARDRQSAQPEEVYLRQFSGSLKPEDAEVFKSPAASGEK
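Cells expressing TRPV1 were dye-loaded with Fluo-8 and read kinetically: 10 s baseline, 3 min after compound (agonist portion), then 2 min after EC20 capsaicin (allosteric enhancer portion). Calcium-bound dye fluorescence at 480/520 nm.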
gsp antagonist: gsp mutant antagonism | gsp-mutant cells, cAMP HTRF, 30 min; control for the full effect not named in the record | Potency, µM (top dose mostly 76.9 µM), for inactives: at the highest dose activity change, negative = inhibition, hits mostly inhibitors | hit rate 0.4% among 340,000 | AID 624288; active = falling curve of any shape with a large fitted effect; inconclusive = falling curve, mostly with a smaller effect; inactive = flat or rising curve; cell line not stated here;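 note: intracellular cAMP measured with PDE inhibitor Ro 20-1724 present during compound exposure; potency is the fitted concentration of half-maximal effect; % is set by controls: 0 for no effect and ±100 for the full control effect; nearly all actives have a fitted effect of over 65% in size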
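Cells in G418 medium, seeded 16-24 h, 37C; buffer exchange to DPBS + 1 mM CaCl2, 0.5 mM MgCl2, 0.05% BSA; cpds in DMSO + […] (300 uM stock), 30 min 37C; HTRF cAMP detection.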
* hit, by the source's call; [ ] = remark or other dose.

For O=C(c1cc(S(=O)(=O)N2CCC3(CC2)OCCO3)ccc1F)N1CCCCC1 the results were CtBP-E1A blk -2, ClpP mod 0.3%, gsp agonist -5%, Sfp PPTase inh 2%, Menin-MLL FL inh -0.5, TRPV1 potentiator 9 and gsp antagonist -6%.
For COc1ccc(OCC(=O)Nc2ccc3c(c2)nc(CCN2CCN(C)CC2)n3C)cc1 the results were CtBP-E1A blk 7, ClpP mod -6.2%, gsp agonist inconclusive, Sfp PPTase inh 17%, TRPV1 potentiator -13 and gsp antagonist 1%.
Cc1ccc(C(=O)NCCNC(=O)c2ccc(C)nc2)cc1 was read as CtBP-E1A blk 7, gsp agonist 30%, Sfp PPTase inh 3%, Menin-MLL FL inh 1.8, TRPV1 potentiator -3 and gsp antagonist 12%.
CCn1c(SCC(=O)Nc2c(C)n(C)n(-c3ccccc3)c2=O)nc2c1c(=O)n(C)c(=O)n2C was read as CtBP-E1A blk -4, gsp agonist inconclusive, Sfp PPTase inh 16%, Menin-MLL FL inh 2.3, TRPV1 potentiator 3 and gsp antagonist 7%.
`O=C(Nc1ccc2ccccc2c1)c1ccccc1F` gave CtBP-E1A blk 9, ClpP mod 0.8%, gsp agonist -6%, Sfp PPTase inh 18%, Menin-MLL FL inh -1.0, TRPV1 potentiator -14 and gsp antagonist 1%.
`Cc1ccc(S(=O)(=O)N2CCN(C(=O)c3ccc(OCc4c(C)noc4C)cc3)CC2)cc1` gave CtBP-E1A blk 7, ClpP mod 0.2%, gsp agonist -3%, Sfp PPTase inh 6%, Menin-MLL FL inh 1.6, TRPV1 potentiator 6 and gsp antagonist -7%.
CC1(C)NS(=O)(=O)Oc2ccccc21 was read as CtBP-E1A blk 7, ClpP mod 1.4%, gsp agonist 16%, Sfp PPTase inh 26%, Menin-MLL FL inh 3.7, TRPV1 potentiator -14 and gsp antagonist 5%.
For O=C(CN1CCN(Cc2ccc(Cl)cc2)CC1)N/N=C/C=C/c1ccccc1[N+](=O)[O-] the results were CtBP-E1A blk -28, ClpP mod 0.4%, gsp agonist -22%, Sfp PPTase inh 1%, Menin-MLL FL inh 2.6, TRPV1 potentiator -3 and gsp antagonist -12%.
Screening O=C(Nc1ccccc1)NC1CCN(Cc2c(F)cccc2Cl)CC1 returned CtBP-E1A blk -10, ClpP mod -3.2%, gsp agonist -6%[15.4 µM], Sfp PPTase inh 18%, Menin-MLL FL inh 0.3 and gsp antagonist 3%.
For COc1ccc(C(=O)Cc2nnc(C)s2)cc1 the results were CtBP-E1A blk 1, ClpP mod 20µM*, gsp agonist 12%, Sfp PPTase inh 9%, Menin-MLL FL inh 0.4, TRPV1 potentiator 6 and gsp antagonist -6%.
For CC(C)Cc1cc(C(=O)N2CCCC(CCC(=O)N(C)CCc3ccccn3)C2)no1 (configuration not stated) the results were CtBP-E1A blk 7, gsp agonist 12%, Sfp PPTase inh -10%, Menin-MLL FL inh 4.3, TRPV1 potentiator 8 and gsp antagonist -2%.
For CC1CCN(CCCCOc2cccc(C(C)C)c2)CC1 the results were CtBP-E1A blk -3, ClpP mod -0.8%, gsp agonist inconclusive, Sfp PPTase inh -8%, Menin-MLL FL inh 0.0, TRPV1 potentiator 12 and gsp antagonist 2%.
For c1ccc(OCCN2C3=NCCN3c3ccccc32)cc1 the results were CtBP-E1A blk -2, ClpP mod 1.2%, gsp agonist -3%, Sfp PPTase inh 14%, Menin-MLL FL inh 2.2, TRPV1 potentiator -8 and gsp antagonist 0%.
For Cc1ccc2c(c1)NC(=O)C(CC(=O)N(C)Cc1ccccc1)O2 (configuration not stated) the results were CtBP-E1A blk 1, ClpP mod -1.3%, gsp agonist inconclusive, Sfp PPTase inh inconclusive, Menin-MLL FL inh 1.5, TRPV1 potentiator 0 and gsp antagonist 1%.
For Cn1nccc1C(=O)Nc1sc2c(c1C#N)CCCC2 the results were CtBP-E1A blk -9, ClpP mod -1.2%, gsp agonist 16%, Sfp PPTase inh -9%, TRPV1 potentiator -11 and gsp antagonist -17%.
For CC(=O)NC1(c2cccc(F)c2)CCN(CC(=O)NC(C)C)CC1 the results were CtBP-E1A blk 6, ClpP mod 0.7%, gsp agonist 35%, Sfp PPTase inh 21%, Menin-MLL FL inh 1.7, TRPV1 potentiator 2 and gsp antagonist 13%.
Screening c1ccc(CSc2ccc(-c3ccccn3)nn2)cc1 returned CtBP-E1A blk inconclusive, gsp agonist 33%[15.4 µM], Sfp PPTase inh 9%, Menin-MLL FL inh -0.4, TRPV1 potentiator 7 and gsp antagonist 13%.
For Cc1cc(/C=N/n2cnnc2)c(C)n1-c1ccccc1 the results were CtBP-E1A blk -8, ClpP mod 0.7%, gsp agonist 1%, Sfp PPTase inh 4%, Menin-MLL FL inh 3.7, TRPV1 potentiator -3 and gsp antagonist 13%.
For CCOC(=O)c1cc(CC)sc1N the results were CtBP-E1A blk -5, ClpP mod 0.8%, gsp agonist 10%, Sfp PPTase inh 7%, Menin-MLL FL inh -0.7, TRPV1 potentiator -5 and gsp antagonist 6%.
Screening CCOc1ccccc1N(CC(=O)N1CCN(Cc2ccccc2)CC1)S(=O)(=O)c1ccccc1 returned CtBP-E1A blk -10, ClpP mod -1.3% and gsp agonist -38%[inhibitor].
Screening Cc1cc(C)c2c(c1)/C(=N/NC(=O)c1ccc(O)cc1)CCC2 returned CtBP-E1A blk 13, gsp agonist 9%[15.4 µM], Sfp PPTase inh 9%, Menin-MLL FL inh 3.4 and TRPV1 potentiator -29.
CC(C)CCc1noc(CN(C)CC2CCN(Cc3ccccc3)CC2)n1 was read as CtBP-E1A blk -4, ClpP mod -1.6%, gsp agonist -6%[15.4 µM], Sfp PPTase inh 20%, Menin-MLL FL inh 1.6, TRPV1 potentiator -6 and gsp antagonist 4%.
CC(C)(C)OC(=O)NOCC(=O)N(CC(=O)c1ccccc1)Cc1ccccc1 was read as CtBP-E1A blk 7, ClpP mod 0.6%, gsp agonist 1%, TRPV1 potentiator -29 and gsp antagonist -2%.
Screening C#Cc1ccc([C@H]2C=C(C(=O)O)O[C@@H](OCc3ccc(CO)cc3)C2)cc1 returned CtBP-E1A blk 1, ClpP mod -4.5%, Sfp PPTase inh 7%, Menin-MLL FL inh 2.6, TRPV1 potentiator -2 and gsp antagonist -1%.
`O=C(NCCc1ccccc1)c1ccccc1NS(=O)(=O)N1CCCC1` gave CtBP-E1A blk 1, ClpP mod 14µM*, gsp agonist 12%, Sfp PPTase inh 11%, Menin-MLL FL inh 1.5, TRPV1 potentiator -4 and gsp antagonist inconclusive.
`CCc1ccc(NC(=O)CCS(=O)(=O)c2ccc3c(c2)CCN3C(C)=O)cc1` gave CtBP-E1A blk 2, ClpP mod -5.8%, gsp agonist 3%, Sfp PPTase inh 19%, Menin-MLL FL inh -1.0, TRPV1 potentiator -21 and gsp antagonist -8%.
`CCOC(=O)C1CCCN(/C=C2\SC(=S)N(CC)C2=O)C1` (configuration not stated) gave ClpP mod 2.3%, gsp agonist 9%, Sfp PPTase inh -5%, Menin-MLL FL inh -0.9, TRPV1 potentiator -9 and gsp antagonist -15%.
O=C(NCc1ccco1)c1ccc(-c2csnn2)cc1 was read as ClpP mod -6.0%, gsp agonist -33%[inhibitor], Sfp PPTase inh inconclusive, Menin-MLL FL inh 2.3, TRPV1 potentiator -2 and gsp antagonist -6%.
`CC(CN1CCCCC1)OC(=O)/C=C/c1ccccc1` (configuration not stated) gave CtBP-E1A blk 3, ClpP mod -0.9%, gsp agonist -36%[inhibitor], Sfp PPTase inh -13%, Menin-MLL FL inh -0.6, TRPV1 potentiator 7 and gsp antagonist 9%.
For Fc1ccc(CNc2ccccn2)cc1 the results were ClpP mod inconclusive, gsp agonist -2%, Sfp PPTase inh -1%, Menin-MLL FL inh -1.7, TRPV1 potentiator inconclusive and gsp antagonist 1%.
`O=C1OCCN1C(=O)[C@H]1[C@H](c2ccccc2)C(c2ccc(F)cc2)=NN1c1ccccc1` gave CtBP-E1A blk 21, ClpP mod -15%, Sfp PPTase inh 16%, Menin-MLL FL inh inconclusive and gsp antagonist -14%.
Screening CC1CCCCC1NC(=O)CSc1nnc(-c2ccco2)n1N (configuration not stated) returned CtBP-E1A blk 2, ClpP mod 2.2% and gsp agonist -13%.
Screening Cc1cc(C)nc(N2CCC(C(=O)Nc3ccc4c(c3)CCC4)CC2)n1 returned CtBP-E1A blk 7, ClpP mod -1.4%, gsp agonist -5%, Sfp PPTase inh 14%, Menin-MLL FL inh -1.9, TRPV1 potentiator 5 and gsp antagonist 14%.
Screening COc1cccc(CN2CCC(N(CCc3ccccc3)Cc3ccccc3)CC2)c1OC returned CtBP-E1A blk -16, ClpP mod -3.4%, gsp agonist -37%[inhibitor], Sfp PPTase inh 40µM*, Menin-MLL FL inh 0.7, TRPV1 potentiator -6 and gsp antagonist 7%.
For COc1ccc(C(=O)NN=C2CCCC2)cc1OC the results were CtBP-E1A blk -4, ClpP mod 0.1%, gsp agonist inconclusive, Sfp PPTase inh -11%, Menin-MLL FL inh -0.3, TRPV1 potentiator 5 and gsp antagonist 12%.
`C=CCn1c(SCC(=O)Nc2ccc(F)cc2F)nnc1-c1cnccn1` gave CtBP-E1A blk 0, ClpP mod 1.6%, gsp agonist 19%, Sfp PPTase inh 13%, TRPV1 potentiator 15 and gsp antagonist -4%.
`CCOC(=O)CN1CCC(c2ccccc2)CC1` gave ClpP mod -2.8%, gsp agonist -7%, Sfp PPTase inh 17%, Menin-MLL FL inh -0.1, TRPV1 potentiator -15 and gsp antagonist 6%.
Screening COCCNC(=O)C(c1ccc(OC)cc1)N(Cc1ccco1)C(=O)CCC(=O)Nc1ccccn1 (configuration not stated) returned CtBP-E1A blk 4, gsp agonist -27%, Sfp PPTase inh 19%, Menin-MLL FL inh 2.4, TRPV1 potentiator 24 and gsp antagonist 14%.
For Cc1cc(NC(=O)Nc2cccc(C(F)(F)F)c2)n(C)n1 the results were CtBP-E1A blk 7, gsp agonist 19%[15.4 µM], Sfp PPTase inh 4%, Menin-MLL FL inh -0.7, TRPV1 potentiator -11 and gsp antagonist -1%.
For C=CC(=O)N1C/C(=C/c2ccccc2)C(=O)/C(=C\c2ccccc2)C1 the results were CtBP-E1A blk -23, ClpP mod 32µM*, gsp agonist 0% and gsp antagonist -17%.

Source: PubChem
